Ecoli rRNA inh: reduced GFP signal of wild-type E. coli, primary screen, bacterial rRNA inhibitor project, GFP/RFP fluorescence, OD600, single point. E. coli WT GFP vs humanized-ribosome RFP mutants, 24 h; stronger effect = lower value; DMSO median 0, no signal -100. GFP signal change (wild-type ribosome), % (test concentration not listed). hit rate 1.6% among 350,000;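 active = significant combined selectivity score with lowered wild-type GFP, culture density cut under 30%, mutant RFP and density less affected; inactive = any of these conditions unmet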; also: one replicate is shown; some compounds called inactive have numbers as strong as hits
LANA-H2A inh: blockers of LANA interaction with H2A/H2B – biochemical, FP readout, HTS, primary screen; Protein LANA1 (Human herpesvirus 8 type P (isolate GK18)), Q9QR71; cell-free LANA-H2A/H2B peptide, fluorescence polarization; hit rate 0.6% among 320,000; inhibition, % (test concentration not listed); in the data active = inhibition mostly above about 10%, no sharp cut-off; inactive = mostly below about 6.7%;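 also: stock transfer was 7.5 nL into about 10 µL; 0% = median of vehicle wells and 100% = median of positive control wells; one replicate is shown; the record names a cut of 25% in any replicate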
Calb FLC: C. albicans growth inhibition with fluconazole, primary screen, CaCi-2 strain, Alamar Blue fluorescence. growth inhibition, % (concentration not given with the values). hit rate 0.57% among 300,000. AID 1979, 2009. C. albicans CaCi-2 (fluconazole-resistant clinical isolate) + fluconazole, 48 h;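 active = most replicates above 75%; inconclusive = exactly half above 75%; inactive = most below 75%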;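 also: all wells also contain fluconazole at 8 µg/ml as a sub-toxic cotreatment; 0% = median of DMSO wells and 100% = median of geldanamycin control wells; wells of about 8 µL received 7.5 nL stock; the first replicate is given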
T cruzi repl: inhibitors of intracellular T. cruzi growth, primary screen, luminescence, NIH3T3 host cells; T. cruzi beta-gal in NIH3T3, 90 h; inhibition, % (no concentration beside the values); hit rate 1.4% among 300,000; AID 1885, 2009;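 active = mean inhibition across valid replicates above about 55%, limit read from the data; inconclusive = mean below that limit but half or more replicates reach it; inactive = mean below it, under half of replicates reach it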;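 also: signal also drops with host cell toxicity which is not excluded here; 0% = plate median of DMSO wells and 100% = zero luminescence signal; higher percent means less beta-gal luminescence so fewer parasites; stock transfer was 50 nL into about 50 µL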
ALR H2O2 inh: inhibitors of human ALR sulfhydryl oxidase, primary screen, biochemical, H2O2 detection, HRP-luminol luminescence, single point; purified ALR, DTT oxidation; hit rate 3.8% among 290,000; FAD-linked sulfhydryl oxidase ALR (Homo sapiens), P55789; AID 485317, 2010; inhibition, % (concentration not given with the values);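 active = mean and each replicate at 75% or more; inconclusive = only one of the two met; inactive = neither met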;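 also: stock transfer was 7.5 nL into about 7.5 µL; 0% = neutral wells and 100% = wells with inactivated enzyme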
Target sequence (P55789 whole entry, looked up): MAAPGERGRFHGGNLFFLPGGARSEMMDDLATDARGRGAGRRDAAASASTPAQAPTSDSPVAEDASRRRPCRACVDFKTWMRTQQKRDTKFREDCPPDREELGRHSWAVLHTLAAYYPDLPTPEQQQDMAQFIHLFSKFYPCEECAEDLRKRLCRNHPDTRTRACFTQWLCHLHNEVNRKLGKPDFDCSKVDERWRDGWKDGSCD
Beta cell apopt: inhibitors of cytokine-induced beta cell apoptosis, primary screen, luminescence | AID 435005, 2010 | protection from apoptosis, % (concentration not given with the values) | hit rate 0.8% among 300,000 | INS-1E cytokine-induced death, ATP luminescence, 48 h; percent of positive-control rescue, neutral wells zero;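 active = all replicates at 75% or more, or half of them and the mean; inconclusive = half reach 75% but not the mean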;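 also: 0% = cytokine-treated negative control wells and 100% = positive control rescue; higher means more ATP so stronger rescue from cytokine killing; wells of about 40 µL received 100 nL stock; the first replicate is given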
B2AR ag: beta2AR agonists driving receptor internalization, primary screen, cell-based, FAP fluorogen, flow cytometry; hit rate 0.43% among 340,000; response, % (test concentration not listed); Beta-2 adrenergic receptor (Homo sapiens), P07550; Am2.2-beta2AR cells; reference of the scale not given here; AID 504454, 2011;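 active = response above a set limit, near 3 SD of response in nonfluorescent compounds, cut at about 42% in these data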;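 also: stock transfer was 100 nL into about 11 µL; a reference agonist was the positive control; negative values mostly stem from fluorescent compounds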
Target sequence (P07550 whole entry, looked up): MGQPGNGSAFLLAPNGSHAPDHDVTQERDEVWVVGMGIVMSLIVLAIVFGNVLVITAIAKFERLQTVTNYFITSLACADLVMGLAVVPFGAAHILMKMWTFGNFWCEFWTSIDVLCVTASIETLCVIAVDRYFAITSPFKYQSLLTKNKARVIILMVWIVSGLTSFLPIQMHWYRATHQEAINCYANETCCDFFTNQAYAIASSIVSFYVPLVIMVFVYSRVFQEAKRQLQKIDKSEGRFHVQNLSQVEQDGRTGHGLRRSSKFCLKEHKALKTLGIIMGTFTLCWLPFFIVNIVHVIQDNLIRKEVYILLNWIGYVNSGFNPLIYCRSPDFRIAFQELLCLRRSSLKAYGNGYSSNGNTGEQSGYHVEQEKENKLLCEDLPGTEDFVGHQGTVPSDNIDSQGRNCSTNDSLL
A1 inh: caspase 3/7 activation in MEF A1-2A-BIM cells, primary screen, A1 inhibitor project, cell-based, luminescence, HTS | Caspase-Glo 3/7 luminescence, 3 h; percent of clofoctol response, vehicle zero | caspase activation, % (test concentration not listed) | hit rate 0.066% among 330,000 | AID 2462, 2010;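 active = over half of replicate activation scores above 10%, or exactly half above 10 with the replicate mean above 10; inconclusive = replicate mean below 10 yet half the replicates above 10; inactive = over half of replicates below 10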;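 also: wells of about 30 µL received 50 nL stock; many hits fall short of the cut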
Ecoli rRNA inh OD600: also measured in Ecoli rRNA inh; calls as there; OD600 change, %; measured here: OD600 growth;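 optical density of the mix in the first replicate; 0 = DMSO median and -100 = no signal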
Ecoli rRNA inh RFP: also measured in Ecoli rRNA inh; calls as there; RFP signal change, %; measured here: RFP humanized mutant strains;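 first replicate; 0 = DMSO median and -100 = no signal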
Numbers without * were called inactive; ? = inconclusive; · = no result given. This is a subset; the hit share may differ from the screen's.

SMILES	Ecoli rRNA inh	Ecoli rRNA inh OD600	Ecoli rRNA inh RFP	LANA-H2A inh	Calb FLC	T cruzi repl	ALR H2O2 inh	Beta cell apopt	B2AR ag	A1 inh
O=C(CCN1C(=O)/C(=C/c2cccs2)SC1=S)NC1=NCCS1	·	·	·	-5.9	·	·	·	-0.7	-5.5	-0.3
O=C(/C=C/c1ccc(Cl)cc1Cl)N(Cc1ccc(Cl)cc1)C1CCS(=O)(=O)C1 (configuration not stated)	16.5	6.3	-1.3	1.8	-0.5	26.8	-13.6	-5.1	-13.9	0.5
Cc1[nH]n(-c2ccccc2)c(=O)c1N=Nc1cccc(S(=O)(=O)N2CCOCC2)c1	7.5	15.1	0.7	0.6	2.4	-8.1	-10.5	9.6	3.1	0.3
Cc1cc(O)c(NC(=S)NC(=O)c2ccc(-c3ccc(Cl)cc3)o2)cc1C	·	·	·	2.5	30.6	-8.1	-10.7	0.5	19.2	-0.3
CCOc1ccc(C(c2c(NC(=O)c3ccccc3)sc(C)c2C)N2CCN(C)CC2)cc1 (configuration not stated)	·	·	·	-7.6	-17.1	29.3	0.8	·	2.8	0.4
Cc1cccc(C)c1NC(=S)N1CCC(N(C)CC2CCCO2)CC1 (configuration not stated)	·	·	·	0.5	-2.8	-10.8	3.1	-4.1	2.1	0.1
CCCN1C(=O)c2ccccc2NC1c1ccc(Cl)cc1 (configuration not stated)	-35.2	-34.1	-8.4	-1.1	-14.4	6.7	-2.5	3.6	-1.9	0.4
COC(=O)c1cccc(S(=O)(=O)N2CCCCC2)c1	·	·	·	-1.1	-13.6	-7.9	-10.1	-2.4	4.3	-0.1
COc1ccc(S(=O)(=O)N2CCCCC2)cc1NC(=O)c1cc([N+](=O)[O-])ccc1N1CCOCC1	3.0	7.7	-0.4	6.9	4.2	1.2	1.1	16.6	-0.6	1.3
COc1cccc(OC)c1C(=O)Nc1nnc(C(C)C)s1	·	·	·	-2.7	0.6	-15.3	-1.9	·	-7.2	0.1
Cc1ccc(-c2nnn(CC(=O)N(CCN3CCOCC3)C(C(=O)NC(C)(C)C)c3ccc(C)o3)n2)cc1 (configuration not stated)	15.6	8.0	6.9	2.6	1.1	-13.6	-0.7	-10.0	1.3	0.0
COc1ccccc1NC(=O)NC1(C(=O)N2CCC(O)CC2)CCCCC1	·	·	·	2.0	6.3	-4.5	-6.0	1.0	3.0	-0.1
Cc1ccc(S(=O)(=O)N(C)C)cc1NC(=O)COC(=O)CCCOc1ccccc1	9.2	8.5	1.5	-11.3	2.9	0.3	14.9	1.4	5.1	-0.7
COc1cc(/C=C(/Sc2nnc(-c3ccc(F)cc3)o2)C(=O)O)ccc1OC(F)F	0.2	2.4	0.8	4.7	-15.2	16.8	-13.4	3.8	0.2	0.0
CC(C)CCNC(=O)C(Cc1ccccc1)NS(=O)(=O)c1ccc2c(c1)c(=O)n(C)c(=O)n2C (configuration not stated)	6.2	5.3	-0.2	-0.7	-4.0	-9.2	3.0	-5.1	-4.2	-0.1

Part of the list above, showing only A1 inh and Ecoli rRNA inh.
| Compound | A1 inh | Ecoli rRNA inh |
| --- | --- | --- |
| O=C(CCN1C(=O)/C(=C/c2cccs2)SC1=S)NC1=NCCS1 | -0.3 | · |
| O=C(/C=C/c1ccc(Cl)cc1Cl)N(Cc1ccc(Cl)cc1)C1CCS(=O)(=O)C1 (configuration not stated) | 0.5 | 16.5 |

Other entries.
SMILES	Ecoli rRNA inh	Ecoli rRNA inh OD600	Ecoli rRNA inh RFP	LANA-H2A inh	Calb FLC	T cruzi repl	ALR H2O2 inh	Beta cell apopt	B2AR ag	A1 inh
Cc1ccccc1NC(=O)c1cccc2nccnc12	·	·	·	0.1	-5.5	-16.6	-10.5	-8.4	17.7	-0.7
O=C(Cc1cccs1)Nc1cccc(-c2nc3ccccc3o2)c1	·	·	·	-1.8	10.8	4.5	-2.6	3.6	-4.4	0.2
CCOc1ccc(NC(=O)CSc2nc3ccccc3nc2N2CC(C)OC(C)C2)cc1 (configuration not stated)	·	·	·	-2.6	-1.4	26.2	-1.8	5.6	3.6	-1.2
COc1ccc2cc(C(c3nnnn3CCc3ccccc3)N3CCCC(C)C3)c(=O)[nH]c2c1 (configuration not stated)	·	·	·	0.7	-9.1	-10.0	-6.6	-5.5	23.4	?
COCCN(C(=O)COC(=O)c1c(-c2ccccc2)noc1C)c1c(N)n(Cc2ccccc2)c(=O)[nH]c1=O	4.2	14.3	0.2	3.0	-8.9	-3.7	0.0	-1.6	-20.5	-0.2
CCCCOc1ccc(CSC(=N)N)cc1Cl	-40.8	-58.9	-6.5	-1.6	-0.9	-18.6	98.7*	-13.9	25.7	-0.7
Cc1onc(-c2ccccc2Cl)c1C(=O)NC(=S)Nc1ccccc1F	-32.6	-31.1	-13.9	-0.7	4.9	-10.0	-1.1	6.8	-2.5	0.1
CC1(C)CC(=O)C2=C(C1)OC(N)=C(C#N)[C@@H]2c1ccccc1[N+](=O)[O-]	5.9	1.6	2.4	9.1	5.5	-25.6	-8.7	-0.7	-6.2	0.4
Cc1ccc2nc(-c3ccc(N4C(=NC(=O)CCC(=O)O)SC5CS(=O)(=O)CC54)cc3)sc2c1 (configuration not stated)	·	·	·	-2.3	3.1	22.0	33.5	6.3	3.1	1.5
O=C1c2ccccc2C(=O)N1OCc1ccccc1[N+](=O)[O-]	4.5	5.7	-0.7	-5.2	6.1	-6.1	-31.2	-7.8	0.5	0.4
CC(C)(C)NC(=O)CC1C[C@H](C(=O)N2CCOCC2)[C@@]2(C)c3[nH]c4ccccc4c3CCN2C1=O (some centres not stated)	13.6	10.1	1.1	-320.0	·	·	-1.1	-5.6	6.9	0.5
Cc1cc(=O)[nH]c2c1c(C)nn2C(C)(C)C	·	·	·	0.2	-3.3	14.8	-5.4	-0.1	-2.2	0.3
COc1ccc(NC(=O)c2nn(C)c(C(=O)Nc3ccc(OC)cc3)c2[N+](=O)[O-])cc1	16.8	9.5	-0.9	0.9	-0.4	-0.7	·	-7.1	1.3	1.9
Cc1ccc(N2C(=O)C3CCCN3C2=S)c(C)c1 (configuration not stated)	-6.9	4.6	-5.1	2.5	·	·	·	0.5	-0.8	-1.7
COc1ccc(CNC(=O)c2cnc3cc(C)ccn3c2=O)cc1	3.7	6.7	0.0	1.5	2.3	15.7	41.1	5.1	-7.8	0.9

Printed as active in ALR H2O2 inh (from the list above):
molecule,Ecoli rRNA inh,Ecoli rRNA inh OD600,Ecoli rRNA inh RFP,LANA-H2A inh,ALR H2O2 inh,B2AR ag,A1 inh
CCCCOc1ccc(CSC(=N)N)cc1Cl,-40.8,-58.9,-6.5,-1.6,98.7*,25.7,-0.7

(listing goes on)
SMILES	Ecoli rRNA inh	Ecoli rRNA inh OD600	Ecoli rRNA inh RFP	LANA-H2A inh	Calb FLC	T cruzi repl	ALR H2O2 inh	Beta cell apopt	B2AR ag	A1 inh
O=C1c2ccccc2NC(c2cccnc2)N1c1ccccc1F (configuration not stated)	·	·	·	-0.9	-4.1	44.4	0.0	-7.3	-3.6	-0.8
CCCOc1ccc(/C=C/C(=O)OCC(=O)N(C)c2c(N)n(Cc3ccccc3)c(=O)[nH]c2=O)cc1OCC	5.6	4.0	-0.5	3.1	·	20.0	-9.3	-0.7	-7.3	-0.5
CCN(C(=O)CSc1nc2ccccc2o1)C1CCS(=O)(=O)C1 (configuration not stated)	3.4	-1.1	-1.5	-0.8	15.7	-11.4	-16.2	-1.1	-8.1	-0.2
CC1CN(C(=S)Nc2ccc(F)cc2F)CC(C)O1 (configuration not stated)	15.0	2.6	0.4	-3.1	-0.2	4.5	-10.2	-4.7	-6.8	0.3
CC1=C/C(=N\OS(=O)(=O)c2ccccc2)C=CC1=O	·	·	·	2.7	59.8	68.7*	98.9*	4.8	39.3	-0.5
Cc1nn2c3c(cnc2c1-c1ccccc1)C(=O)CC(c1ccccc1)C3 (configuration not stated)	·	·	·	-2.7	-8.2	3.9	6.0	-4.4	-2.5	-0.1
COCCN1CCN(C(=O)C2CCC(=O)N(CCc3ccccc3)C2)CC1 (configuration not stated)	2.8	0.0	-3.4	1.9	1.2	-15.5	-14.3	-14.4	-4.6	-0.1
Cc1ccc(S(=O)(=O)Oc2ccccc2/C=N/O)cc1	-21.8	-27.9	-2.5	3.6	-29.4	1.3	74.1	2.1	-0.1	-0.3
O=C1C2C3C=CC(C3)C2C(=O)N1Cc1cccnc1 (configuration not stated)	·	·	·	-1.9	-2.6	-9.4	5.5	-13.3	2.0	0.8
O=C(O)c1cc(NN=Nc2cccc([N+](=O)[O-])c2)cc([N+](=O)[O-])c1	5.8	6.8	-1.1	-1.7	0.7	-6.2	4.8	2.0	0.2	-4.7
COc1cc2c(cc1OC)C(C)N(C(=O)c1c(-c3ccccc3)noc1C)CC2 (configuration not stated)	16.6	7.9	2.6	-3.5	9.3	·	-2.7	-2.2	-2.9	1.1
CC(=O)N(Cc1ccccc1)Cc1nc2sc(C)c(C)c2c(=O)[nH]1	8.8	-8.0	0.0	0.0	3.4	-0.2	2.7	1.6	-2.9	0.1
COc1cc2[nH]c(=O)n(C3CCCCC3)c(=O)c2cc1OC	·	·	·	4.9	-5.0	-1.0	0.5	-5.0	-5.9	-0.4
Cn1c(=O)c2c(nc(CN3CCOCC3)n2CCCc2ccccc2)n(C)c1=O	·	·	·	0.3	1.1	-3.4	·	-2.3	-6.6	-0.9
Cc1ccc(NC(=O)C2CCN(S(C)(=O)=O)CC2)cc1Cl	-7.8	-4.6	3.0	-2.6	-7.6	4.3	-1.2	3.4	8.0	-0.2
O=C(CC1(O)C(=O)c2ccccc2C1=O)c1ccccc1	-1.3	-2.9	3.1	16.8	32.4	-14.5	7.6	-5.1	4.2	0.2
CCCNC(=O)CSc1nnc(C)s1	·	·	·	5.0	·	·	-15.2	-3.0	4.4	-0.6
CC1CCC2(CC1)NC(=O)N(CC(=O)Nc1cccnc1Cl)C2=O (configuration not stated)	5.8	14.1	-3.0	-2.3	·	·	·	3.7	8.7	-0.7
CCOC(=O)N1CCN(C(=O)CSc2nc(=O)n3cccc(C)c3n2)CC1	-0.3	2.2	-3.0	2.2	-8.0	-8.8	1.3	·	-7.2	0.0
CC(=O)c1cccc(-n2c(CCC(=O)O)ccc2-c2cccs2)c1	-14.7	-3.5	7.7	3.5	?	-1.2	88.7*	-1.2	2.1	-0.2
C=CCC1(CC=C)CCCN1C(=O)c1cc(COc2ccc(C)nc2)on1	-1.0	-5.3	-1.1	1.8	-8.1	?	-86.0	105.3*	0.2	-0.3
COC(=O)C1=C(N)Oc2c(oc(CO)cc2=O)C1c1ccc(F)cc1 (configuration not stated)	3.3	1.4	-2.4	-1.8	-5.5	5.4	·	-4.8	-1.8	0.1
